Bioassay records as filed in PubChem.
E coli growth – E. coli growth inhibition. Escherichia coli growth, OD600, 23 h; hits give low values. OD600 absorbance (test concentration not listed). hit rate 0.21% among 330,000. AID 1053175;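 active means OD600 absorbance below the run mean of sample wells minus 3.6 SD, in any replicate, cut at about 0.56 in these data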;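 further: stock transfer was 300 nL into about 60 µL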
MLL AF4-AF9 inh – inhibitors of human MLL-AF4/AF9 interaction; AlphaScreen, biotin-AF4 peptide binding to FLAG-AF9; inhibition, % at 10 µM; hit rate 0.47% among 350,000;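 active means every replicate reaching a set inhibition limit, whatever the replicate mean, cut at about 25% in these data; inconclusive means mean inhibition reaches that limit but some replicates miss it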;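 further: 0% = plate neutral control median and 100% = total signal loss; the record names both 10 and 1 µM as test concentration; the first replicate is given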
HNF4A DNA FP – change in binding of human HNF4 alpha to DNA; activity change, % at 10 µM; hit rate 0.3% among 360,000; P41235; HNF4a-FITC DNA binding, fluorescence polarization, 1 h; in the data active means activity change above about 30%, passing the limit was not always enough;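 further: controls were the assay level and a saturating level of protein; the project sought stronger binding though the title names inhibitors; some compounds called inactive have numbers as strong as hits; positive values seem to mean higher polarization but the record does not say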
Target sequence (P41235 whole entry, looked up): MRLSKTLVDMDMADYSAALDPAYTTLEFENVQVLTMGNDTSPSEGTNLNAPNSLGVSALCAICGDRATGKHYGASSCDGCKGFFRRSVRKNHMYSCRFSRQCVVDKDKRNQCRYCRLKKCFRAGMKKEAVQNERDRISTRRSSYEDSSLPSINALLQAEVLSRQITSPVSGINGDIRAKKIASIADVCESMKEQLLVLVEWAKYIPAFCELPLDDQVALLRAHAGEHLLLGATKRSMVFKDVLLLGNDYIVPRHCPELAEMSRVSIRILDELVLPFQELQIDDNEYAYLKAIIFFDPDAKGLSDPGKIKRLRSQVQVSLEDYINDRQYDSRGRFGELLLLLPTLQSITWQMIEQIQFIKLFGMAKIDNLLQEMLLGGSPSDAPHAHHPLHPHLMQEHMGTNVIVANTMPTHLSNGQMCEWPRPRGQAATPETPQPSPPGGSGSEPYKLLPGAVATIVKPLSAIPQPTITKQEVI
RanGTP-Imp inh – disruptors of Ran-importin-beta complex formation – biochemical, FRET, CFP-Ran, YFP-importin-beta, homogeneous, primary screen | inhibition, % (concentration not given with the values) | cell-free CFP-Ran/YFP-importin-beta FRET ratio | hit rate 1.1% among 300,000 | AID 2216;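 active means most replicates above 15%; inconclusive means exactly half above 15%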;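 further: 0% = DMSO wells and 100% = Ran loaded with GDP instead of GTP; wells of about 40 µL received 100 nL stock; the first replicate is given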
UCH37 DUB inh – blocks the human deubiquitinase UCH37; Q9Y5K5; hit rate 0.33% among 330,000; inhibition, % (concentration not given with the values); purified proteasome/UCH37, Ub-AMC cleavage fluorescence;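 active means mean of two replicates above 20%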;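 further: 0% = compound-free wells with enzyme and 100% = wells lacking proteasome; stock transfer was 100 nL into about 20 µL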
Target sequence (Q9Y5K5 whole entry, looked up): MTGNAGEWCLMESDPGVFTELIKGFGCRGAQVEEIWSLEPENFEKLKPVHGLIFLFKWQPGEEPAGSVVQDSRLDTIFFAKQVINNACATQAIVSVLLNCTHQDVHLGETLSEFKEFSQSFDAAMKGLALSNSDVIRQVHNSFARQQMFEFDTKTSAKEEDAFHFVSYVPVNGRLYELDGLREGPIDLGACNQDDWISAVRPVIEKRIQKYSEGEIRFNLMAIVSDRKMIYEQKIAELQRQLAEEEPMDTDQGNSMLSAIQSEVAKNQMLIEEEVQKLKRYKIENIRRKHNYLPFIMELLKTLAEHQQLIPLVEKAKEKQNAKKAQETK
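Signal – fluorescence, ex 355 nm, em 460 nm · System – Proteasome-bound UCH37 · Input – 0.15 nM proteasome as dispensed · Timing – 30 min preincubation with enzyme, 25 min cleavage at room temperature · Read-out basis – percent inhibition of cleavage signal versus uninhibited and no-proteasome wells · Medium – Tris-HCl pH 7.4 with ATP-MgCl2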
FGF22 binding – FGF22 (human) thermal shift binding | Q9HCT0 | calls only at 9.99 µM | AID 651658 | recombinant FGF22 thermal shift, SYPRO orange fluorescence; percent of sucrose octasulfate shift, DMSO zero | hit rate 1.5% among 340,000;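 active means melting point raised past a set limit in the mean and every replicate; inconclusive means no clear call; three in four hits are not shown here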
Target sequence (Q9HCT0 whole entry, looked up): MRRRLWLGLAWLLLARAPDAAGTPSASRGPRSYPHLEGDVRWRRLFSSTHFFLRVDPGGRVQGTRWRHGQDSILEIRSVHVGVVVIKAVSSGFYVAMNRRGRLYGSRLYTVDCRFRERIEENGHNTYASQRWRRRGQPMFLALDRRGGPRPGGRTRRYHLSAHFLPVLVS
Vif A3G – inhibitors of Vif binding to APOBEC3G peptide, primary screen, biochemical, TR-FRET, GST-Vif 1-94, biotin-A3G peptide, dose response retest (AID 1117319); TR-FRET GST-Vif / biotin-A3G peptide binding; higher % means a stronger effect; test concentration not given here; strong numbers were not always called active; inhibition, %; hits with a dose series show IC50 in µM; hit rate 0.57% among 260,000;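 active means above the screen mean plus three standard deviations and confirmed in dose response; inconclusive means results disagree or hit not tested in dose response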;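 further: Vif residues 1-94 fused to GST binding biotinylated APOBEC3G peptide 110-148; 0% = full assay without inhibitor and 100% = GST in place of GST-Vif; retest series ran down from 100 µM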
* = called active by the depositor; i = inactive; ? = inconclusive; . = no result given.

Start of the listing, in advance, two compounds:
Under each structure: E coli growth, MLL AF4-AF9 inh, HNF4A DNA FP, RanGTP-Imp inh, UCH37 DUB inh, FGF22 binding, Vif A3G
1. CC(C(=O)Nc1ccc(S(=O)(=O)N2CCCC2)cc1)N1CCc2ccccc2C1 (stereo not given)
→ 0.65, 1.7, 1.3, ., 2.6, i, .
2. COCc1cc(=O)oc2cc(NC(=O)c3ccc(C(C)(C)C)cc3)ccc12
→ 0.72, ., 1.0, ?, -184, ., .

All compounds of this part, repeating the preview:
Under each structure: E coli growth, MLL AF4-AF9 inh, HNF4A DNA FP, RanGTP-Imp inh, UCH37 DUB inh, FGF22 binding, Vif A3G
1. CC(C(=O)Nc1ccc(S(=O)(=O)N2CCCC2)cc1)N1CCc2ccccc2C1 (stereo not given)
→ 0.65, 1.7, 1.3, ., 2.6, i, .
2. COCc1cc(=O)oc2cc(NC(=O)c3ccc(C(C)(C)C)cc3)ccc12
→ 0.72, ., 1.0, ?, -184, ., .
3. CCC(=O)N1CCc2cc(S(=O)(=O)NCCC(=O)NC3CCCCCC3)ccc21
→ 0.72, -3.4, 3.0, 1.5, -0.2, i, .
4. Cc1ccc(-c2csc(N(Cc3ccco3)C(=O)c3cccs3)n2)cc1
→ 0.72, ., -1.9, ., -1.2, ., -1%
5. COc1ccc(C(OCC(O)CN2CCC(O)CC2)c2ccc(OC)cc2)cc1 (stereo not given)
→ 0.7, 1.8, 3.5, -1.0, 1.4, i, .
6. CC(=O)c1ccc(NC(=O)c2sc3nc(C)c(C)c(C)c3c2N)cc1
→ 0.68, 0.2, 0.7, 0.9, -5.7, i, .
7. CCOC(=O)C1CCN(C(=O)Cc2cccc3ccccc23)CC1
→ 0.68, ., -0.5, -2.9, 4.9, ., -4%
8. CCOC(=O)c1cc(C#N)c(N2CCCC2)nc1-c1ccccc1
→ 0.77, ., 3.5, 2.4, -86, ., 2%
9. CCOC(=O)C1=C(O)CSC1=Nc1ccc(Cl)cc1
→ 0.69, ., 1.7, 3.2, 4.0, ., -4%
10. c1ccc(CCCc2nc(-c3cccnc3)no2)cc1
→ 0.72, 0.8, -0.4, ?, 3.9, i, .
11. CC1=C(C(=O)N(C(C)C)C(C)C)CC(CC(=O)NC2CC2)C(=O)N1Cc1ccc(F)cc1 (stereo not given)
→ ., 0.8, -1.3, ., ., i, .
12. Cc1nc2ccc(NC(=O)c3c(-c4ccccc4)noc3C)cc2s1
→ 0.75, ., -0.1, -4.0, 3.9, ., 4%
13. CCC(=O)c1cc2c(C)cc(=O)oc2c(C)c1OC
→ 0.67, ., -1.2, -1.4, -1.8, ., -1%
14. O=C(Nc1cc(=O)[nH]c2nc(-c3ccc(Cl)cc3)nn12)c1ccccc1
→ 0.67, ., ., 1.2, 5.4, ., ?
15. CCN(CC)c1ccc(S(=O)(=O)N2CCOCC2)cc1NC(=O)COC(=O)c1ccco1
→ 0.65, 0.6, -0.2, 1.8, 2.7, i, -3%
16. Oc1ccc(-c2csc(Nc3ncccn3)n2)c(O)c1
→ 0.69, -0.3, 2.3, ?, 1.6, i, 7%
17. COc1cc(OC)cc(-c2noc(-c3csc([C@@H]4C[C@H](O)[C@@H](CO)O4)n3)n2)c1
→ ., 2.0, 4.8, ., ., i, .
18. CCN(CC)C(=O)CSc1nc(-c2ccccc2)ccc1C#N
→ 0.68, -0.7, 4.4, -5.3, -26, i, -8%
19. CCCC(=O)C1=C(O)C(C(=O)OC)C(C)(C)CC1=NC (stereo not given)
→ 0.73, ., 0.8, -1.3, 5.8, ., -1%
20. O=C(O)c1ccc2c(c1)C(=O)N(c1cccc(-c3nc4ccccc4s3)c1)C2=O
→ ., -9.2, -2.3, ?, ., i, 13%
21. CC(=O)[C@@]1(O)CC[C@H]2[C@@H]3C[C@H](C)C4=CC(=O)CC[C@]4(C)[C@H]3CC[C@@]21C
→ ., 5.1, 1.4, 2.2, -0.2, i, -3%
22. CCN(C(=O)COC(=O)c1cc(=O)[nH]c2ccccc12)C1CCS(=O)(=O)C1 (stereo not given)
→ 0.7, -2.8, 5.4, 8.1, -30, i, 9%
23. O=C(NCCc1ccccc1)c1ccc(NC(=O)c2cccnc2)cc1
→ 0.66, -5.1, -0.5, 0.3, 5.2, i, .
24. Cc1ccc(-c2cc(C(F)(F)F)n3ncc(C(=O)NCc4ccco4)c3n2)cc1
→ 0.8, ., -1.0, 3.2, -66, ., 12%
25. Fc1ccc(N2CCN(Cc3cnc(Oc4ccc(Br)cc4)s3)CC2)cc1
→ 0.73, ., 1.6, 3.7, 0.8, ., 27%
26. CC(C)=CCC[C@](C)(O[C@@H]1O[C@H](CO[C@@H]2OC[C@@H](O)[C@H](O)[C@H]2O)[C@@H](O)[C@H](O)[C@H]1O)C1CC[C@]2(C)C1[C@H](O)CC1[C@@]3(C)CC[C@H](O[C@@H]4O[C@H](CO)[C@@H](O)[C@H](O)[C@H]4O)C(C)(C)C3CC[C@]12C (stereo not given in full)
→ ., ., -1.5, ., 4.3, i, .
27. Cc1ccc(S(=O)(=O)N[C@H](C(=O)NCC2CCC(C(=O)O)CC2)C(C)C)cc1 (stereo not given in full)
→ 0.66, -3.6, -3.5, 2.3, 2.9, i, 1%
28. CC(C)CC(NC(=O)C(CO)NC(=O)C1CCC(=O)N1)C(N)=O (stereo not given)
→ 0.7, ., -0.9, 0.3, -1.7, ., 14%
29. Cc1ccc(S(=O)(=O)N2CCCCC2)cc1C(=O)OC(C)C(=O)NCC1CCCCC1 (stereo not given)
→ 0.65, 0.6, 2.9, ., 0.9, i, 8%
30. CCn1cc(Br)c(C(=O)Nc2sc3c(c2C(N)=O)CCCC3)n1
→ 0.72, ., -4.2, 4.8, -216, ., .

More entries.
Under each structure: E coli growth, MLL AF4-AF9 inh, HNF4A DNA FP, RanGTP-Imp inh, UCH37 DUB inh, FGF22 binding, Vif A3G
31. Cc1c(O)c(S(=O)c2ccccc2)c(=O)n(-c2ccccc2)c1-c1ccccc1 (stereo not given)
→ 0.67, ., -0.9, 0.8, 1.0, ., ?
32. O=C(Nc1ccccc1)N1CCSCC1
→ 0.69, ., -0.2, -0.2, -2.4, ., -3%
33. CCn1c(C)nc2cc(C(=O)NNS(=O)(=O)c3cc(Br)ccc3Br)ccc21
→ 0.7, 4.6, 0.8, -1.1, 3.5, i, .
34. Clc1cnc(N/N=C/c2ccncc2)c(Cl)c1
→ ., 2.4, 1.3, 0.1, ., i, .
35. CC(C)=CCC/C(C)=C/C(=O)O
→ 0.72, -2.5, 3.1, -0.4, 0.9, i, .
36. CC(C)CCn1cnc2c(cnn2-c2ccc(F)cc2)c1=O
→ 0.71, ., -1.0, 3.7, -2.8, ., -2%
37. NC(=O)C1CCN(C(=O)c2ccc3c(=O)n(Cc4ccco4)c(SCc4ccc([N+](=O)[O-])cc4)nc3c2)CC1
→ 0.7, -0.4, 2.6, -9.2, 3.3, i, .
38. Cc1cc(NC(=O)c2cccnc2Cl)ccc1NC(=O)c1cc2ccccc2o1
→ 0.7, 3.8, 3.6, -7.6, -148, i, .
39. O=C(CCCSc1nc2ccccc2[nH]1)NCc1ccccc1
→ 0.67, 2.0, 0.8, -2.2, -0.2, i, 4%
40. Oc1ccccc1N1CCN(c2ncccn2)CC1
→ 0.71, ., -1.5, -2.5, 1.7, ., 7%
41. COc1cccc(CNC(=O)c2ccc(COc3ccccc3)cc2)c1
→ 0.65, -2.5, 1.5, 4.5, 1.5, i, .
42. COC(=O)c1cc2sc(Cl)cc2n1Cc1nc(-c2ccccc2)oc1C
→ 0.8, -1.1, 2.2, ?, 5.4, i, -8%
43. CCCCNC(=O)CC1SC(=NCC)N(CC)C1=O (stereo not given)
→ 0.71, ., -0.2, 1.7, 3.6, ., 3%
44. OCCn1c(C(F)(F)F)nc2ccccc21
→ 0.67, ., 0.0, -5.0, 5.7, ., 17%
45. CCn1cc(S(=O)(=O)c2ccc(C)cc2)c(=O)c2cc(OC)ccc21
→ 0.68, -0.1, -3.1, ?, -9.4, i, .
46. CCOC(=O)c1ccccc1NC(=O)COC(=O)CC1CCCCC1
→ 0.71, -3.0, -2.4, 3.2, 3.8, i, .
47. CC1=C(C(=O)NC(C)c2ccc3c(c2)OCCO3)C2(CCC(C)CC2)OC1=O (stereo not given)
→ 0.75, 1.6, 0.4, ?, 3.1, i, 8%
48. Cc1nc(SCC(=O)N2CCOCC2)c2c(=O)n(C)c(=O)n(C)c2n1
→ 0.69, -24, 1.9, -0.6, -0.4, i, 4%
49. CCOC(=O)c1nc(C)[nH]c1C(=O)OCC
→ 0.65, ., 8.3, 3.0, 3.3, ., -2%
50. Clc1ccc(-c2nnc(-c3ccco3)o2)cc1
→ 0.72, ., 2.6, -1.1, -14, ., 3%
51. Cc1cc(OCc2nc(-c3cccnc3)no2)c(C)cc1Br
→ 0.69, ., 2.2, 1.7, -0.3, ., 2%
52. N#Cc1ccc(OCC(=O)NCCc2ccccn2)cc1
→ 0.74, ., -1.5, 2.6, -0.9, ., -1%
53. Cc1ccc(N=Cc2c(O)n(-c3cc(Cl)ccc3N3CCOCC3)c(=O)c3ccccc23)cc1C
→ 0.76, ., 1.2, 2.0, 4.5, ., ?
54. COc1cc(OC)c(C(=O)NNC(=O)c2ccc(NS(=O)(=O)c3cccs3)cc2)cc1OC
→ 0.72, -3.6, 1.8, ., 1.1, i, .
55. Cc1ccc(Oc2ccccc2/C=C/C(=O)O)cc1
→ 0.72, ., -0.4, 0.3, 1.1, ., 7%
56. CCc1ccc(/C=C2/Sc3ccccc3N(CC(=O)NCCCOC)C2=O)cc1
→ 0.69, ., ., 7.3, 3.3, ., 4%
57. O=C(NCc1ccccc1)C1=C[C@H](c2ccccc2)C[C@H](OCc2ccc(CO)cc2)O1
→ ., -0.1, -0.6, -0.8, 1.2, i, .
58. CCOC(=O)c1ccc(N2CN=C3SCC(=O)N3C2)cc1
→ 0.67, ., 0.1, -1.4, 5.0, ., 8%
59. CC1(c2cccc(Br)c2)NC(=O)N(CC(=O)NCCC2=CCCCC2)C1=O (stereo not given)
→ ., -1.8, 0.1, ., ., i, -7%
60. CCOCc1nnc(NC(=O)C2CC(=O)N(CCc3ccc(F)cc3)C2)s1 (stereo not given)
→ ., -3.3, -3.5, -0.2, ., i, .

New compounds follow:
Under each structure: E coli growth, MLL AF4-AF9 inh, HNF4A DNA FP, RanGTP-Imp inh, UCH37 DUB inh, FGF22 binding, Vif A3G
61. Cc1csc(=O)n1CCC(=O)OC(C)C(=O)Nc1ccc(N2CCOCC2)cc1 (stereo not given)
→ 0.65, 0.6, 3.3, ., 1.2, i, -13%
62. COc1cc(C(=O)NNC(=S)NC(=O)c2ccc3c(c2)OCO3)cc(OC)c1OC
→ 0.64, 1.4, 1.6, 3.2, 3.8, i, 6%
63. Clc1cccc(C2Nc3cccc4cccc(c34)N2)c1
→ 0.66, 4.6, -9.4, 3.0, 7.6, i, 18%
64. O=C(Cc1c(F)cccc1Cl)Nc1ccc(-n2cnnn2)cc1
→ 0.67, -4.7, 4.3, ., -0.4, i, -1%
65. O=C(Nc1ccc(O)cc1)N1CCOCC1
→ 0.68, -5.8, -0.8, 6.1, 5.5, i, 19%
66. Nc1nnnn1/N=C/c1ccc(F)cc1
→ ., 2.4, 2.6, 1.0, ., i, 4%

Some values from above.
HNF4A DNA FP with Clc1cccc(C2Nc3cccc4cccc(c34)N2)c1 reads -9.4
RanGTP-Imp inh with Nc1nnnn1/N=C/c1ccc(F)cc1 reads 1.0
Vif A3G with O=C(Cc1c(F)cccc1Cl)Nc1ccc(-n2cnnn2)cc1 reads -1%

Only part of the results is shown; count on the stated rates, not on these rows.
